High-throughput results (PubChem BioAssay)
PrP UTR inh: suppresses PrP 5' UTR mRNA reporter expression; cell-based PrP 5' UTR mRNA reporter, plate reader; inhibition, % (test concentration not listed); 340,000 tested, 0.35% active;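 active means every replicate at 50% or more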;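 further: 0 = median of the neutral control wells; tested in H4 reporter cells; numbers are from one replicate; inactives centre near -14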
Bead autofluor: flagged as autofluorescent in microsphere protease counterscreen. fluorescence intensity (test concentration not listed). 360,000 tested, 3.1% active. compound autofluorescence counterscreen, microsphere flow cytometry; stronger effect = higher value;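 active means at least 3 SD above the mean of all compounds, about 16000 in these data; inconclusive means too few beads counted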;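 further: 100 nL of 1 mM stock went into each well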
Sa RN4220 lethal: S. aureus RN4220 growth inhibition; OD600, 16 h; inhibition, % (no concentration beside the values); 330,000 tested, 0.33% active; AID 1259311;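 active means z-score of -3 or lower and OD600 up to 0.18 on both plates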;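 further: plate controls were untreated cells for no effect and reference antibiotic for full effect; stock transfer was 100 nL into about 80 µL; one replicate is shown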
BJeLR lethal: kills HRASV12-expressing BJeLR cells; BJeLR (HRASV12) viability, CellTiter-Glo ATP luminescence, 48 h; reference of the scale not given here; AID 1554; 300,000 tested, 0.17% active; inhibition, % (concentration not given with the values);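 active means replicate mean above 50%; inconclusive means above 50% but judged a plate artefact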;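 further: 50 nL library stock added to about 25 µL; numbers are from one replicate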
ugtP null kill: kills S. aureus RN4220 lacking UgtP; S. aureus RN4220 ugtP deletion, OD600 growth, 16 h; some inactives read as strong as hits; growth inhibition, % (no concentration beside the values); 330,000 tested, 0.54% active;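 active means z-score under -3 and OD600 up to 0.15 on both plates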;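 further: plate controls were untreated wells for no effect and antibiotic for full effect; wells of about 80 µL received 100 nL stock; the first replicate is given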
Mtb hypoxia rep: reduces hypoxia-regulated biosensor signal in M. tuberculosis; 300,000 tested, 0.1% active; fluorescence inhibition, % (concentration not given with the values); AID 1159583; M. tuberculosis hypoxia-regulated fluorescent reporter, fluorescence;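 active means 35 to 45% if threefold the growth effect, above 45% if 1.5-fold the growth effect; inactive means the rest, general growth blockers included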;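 further: wells of about 50 µL received 100 nL stock; 0% = vehicle wells and 100% = reference inhibitor wells; whole bacteria with a GFP reporter of the hypoxia response; strong numbers were not always called active; many hits fall short of the cut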
Mtb hypoxia rep growth: further read-out of Mtb hypoxia rep, marked with its call; growth inhibition, %; measured here: M. tuberculosis growth (absorbance);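 0% = vehicle and 100% = reference antibiotic; read after six days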
* = called active by the depositor; ? = inconclusive; . = not tested or not shown; & = joins results of further samples.

#1 CC(=O)N(Cc1cccc(Br)c1)c1ccc(N2CCOCC2)c(Cl)c1
#2 CC1(C)Cc2cccc(OCC(=O)Nc3cccnc3)c2O1
#3 COc1ccc(CN(C)C(=O)Cc2c[nH]c3ccccc23)c(OC)c1OC
#4 CC(=O)Nc1ccc(S(=O)(=O)N2CCC(C(=O)N[C@@H](C)C(=O)NC3CCCC3)CC2)cc1
#5 O=C(NCc1cccnc1)C1CCN(S(=O)(=O)c2cccs2)CC1
#6 C/C(=N/NC(=O)c1ccco1)c1cccc(NC(=O)c2ccc(C)s2)c1
#7 CC1CCCCN1c1nnc(N)s1 (centres undefined)
#8 COc1ccc(CNC(=O)C(=O)N2CCC3(CC2)OCCN3S(=O)(=O)c2ccc(C)cc2)cc1
assay / compound	1	2	3	4	5	6	7	8
PrP UTR inh	-4	-20	1	10	-29	-62	-21	-21
Bead autofluor	4151	8772	3517	5531	23889*	10017	11309	6345
Sa RN4220 lethal	8.6	2.7	0.9	-1.1	5.7	.	3.2	3.7
BJeLR lethal	-6	4	-8	2	-2	-13	0	11
ugtP null kill	1	-2	1	-1	5	.	10	8
Mtb hypoxia rep	0	8	-12	-3	3	.	-4	7
Mtb hypoxia rep growth	6	12	0	10	8	.	-4	0

#9 Cn1c(SCC(=O)N2CC(=O)Nc3ccccc32)nnc1C(F)(F)F
#10 COc1cc(C(=O)Nc2cc(C(F)(F)F)ccc2N2CCOCC2)ccc1OCC(=O)N1CCOCC1
#11 CC(C)c1ccccc1NC(=O)COC(=O)Cc1c[nH]c2ccccc12
#12 CC1=CC(=N/N=C2/NC(=O)C(CC(=O)Nc3ccccc3)S2)CC(C)(C)C1 (centres undefined)
#13 COc1ccc(NS(=O)(=O)c2cccc(C(=O)N(C)Cc3ccc(SC)cc3)c2)cc1
#14 CN1C(=O)CC(N2CCC(c3nc4ccccc4[nH]3)CC2)C1=O (centres undefined)
#15 COc1ccc(/C=C/C(=O)OCC(=O)N(C)CC(=O)Nc2ccc(C)cc2)c(OC)c1
#16 C=CCn1c(COc2cccc(C)c2)nnc1SCC(=O)NC(=O)NCc1ccco1
assay / compound	9	10	11	12	13	14	15	16
PrP UTR inh	-10	-20	-14	.	-23	-12	5	-11
Bead autofluor	6101	5687	1994	.	.	4343	5812	9494
Sa RN4220 lethal	1.3	4.5	6.7	21	-5.4	5.3	6.7	2.0
BJeLR lethal	.	13	6	.	6	-6	.	-11
ugtP null kill	-1	3	5	9	2	1	21	-2
Mtb hypoxia rep	1	8	-5	12	-3	.	0	7
Mtb hypoxia rep growth	0	3	3	-6	0	.	1	2

Entries of single compounds from above. Screens in order: PrP UTR inh	Bead autofluor	Sa RN4220 lethal	BJeLR lethal	ugtP null kill	Mtb hypoxia rep	Mtb hypoxia rep growth
Results for `CC1=CC(=N/N=C2/NC(=O)C(CC(=O)Nc3ccccc3)S2)CC(C)(C)C1` (centres undefined) → .	.	21	.	9	12	-6
Results for `COc1cc(C(=O)Nc2cc(C(F)(F)F)ccc2N2CCOCC2)ccc1OCC(=O)N1CCOCC1` → -20	5687	4.5	13	3	8	3
Results for `C=CCn1c(COc2cccc(C)c2)nnc1SCC(=O)NC(=O)NCc1ccco1` → -11	9494	2.0	-11	-2	7	2

Later entries
#17 Cc1cccc(C)c1NC(=O)c1c(C)nn(-c2ccccc2)c1Cl
#18 CNc1cc(CSc2ccc(Cl)cc2)nc(C)n1
#19 O=C(COc1ccc(Cl)cc1Br)NNC(=O)C(=O)N1CCCCC1
#20 Cc1ccnc(NC(c2ccccc2O)c2oc(CO)cc(=O)c2O)c1 (centres undefined)
#21 CC(N=C1NS(=O)(=O)c2ccccc21)C(=O)NCc1ccc(F)cc1 (centres undefined)
#22 CCOC(=O)c1[nH]c(C)c(CN(CCc2ccc(OC)c(OC)c2)C(=O)CCCC(=O)O)c1C
#23 O=C(NNc1cc(C(F)(F)F)nc2ccccc12)Nc1cccc(Cl)c1
#24 O=C(/C=C/c1cccs1)N1CCN(c2ccc(O)cc2)CC1
assay / compound	17	18	19	20	21	22	23	24
PrP UTR inh	-18	-51	-15	-8	-16	-3	-11	-20
Bead autofluor	5160	2620	2689	2462	3428	3943	3236	3194
Sa RN4220 lethal	4.9	3.8	-0.2	3.3	3.5	1.3	-4.2	5.5
BJeLR lethal	2	-4	3	13	.	1	-3	4
ugtP null kill	-17	3	-2	3	6	13	-7	4
Mtb hypoxia rep	3	-7	.	9	6	.	5	20
Mtb hypoxia rep growth	5	0	.	6	8	.	10	5

#25 O=C(NCCc1ccccc1)C(=O)NCC1OCCN1S(=O)(=O)c1ccc(Br)cc1 (centres undefined)
#26 CCOCC(=O)Nc1cc([N+](=O)[O-])ccc1C
#27 COC(=O)CN1C(=O)C2C(c3ccc(C)o3)N3C(=O)CN(Cc4ccc(-c5ccccc5)cc4)C(=O)[C@@]3(C)C2C1=O (some centres undefined)
#28 CCCCC1=CC2=CC(=O)C(C)(OC(=O)CC)C(=O)C2=CN1c1cccc(C#N)c1 (centres undefined)
#29 CC1CCOC2(O1)C(=O)N(CN1CCN(c3ccccc3F)CC1)c1ccccc12 (centres undefined)
#30 O=C1C(Cl)=C(Nc2ccc3cn[nH]c3c2)C(=O)c2ccccc21
#31 O=C(NN=Cc1ccco1)c1cc(C2CC2)nc2ccccc12
#32 O=C(NCc1cccs1)c1nc2ncccn2n1
assay / compound	25	26	27	28	29	30	31	32
PrP UTR inh	-29	-29	.	7	0	.	.	-13
Bead autofluor	5135	2079	.	4028	9597	2461	.	2883
Sa RN4220 lethal	1.7	2.7	3.6	6.8	3.3	42	1.8	7.9
BJeLR lethal	1	3	.	4	0	87*	.	-2
ugtP null kill	11	6	-2	-11	-8	20	6	0
Mtb hypoxia rep	7	16	8	9	-3	21	1	5
Mtb hypoxia rep growth	5	16	19	8	3	17	5	4

#33 CCc1nnc(NC(=O)C2CCN(C(=O)c3ccccc3C)CC2)s1
#34 O=C(CCCn1c(=O)[nH]c2ccccc2c1=O)NCCSCc1ccccc1
#35 O=C1c2ccccc2C(=O)N1CCOCCN1C(=O)c2ccccc2C1=O
#36 Nc1ccc(S(=O)(=O)c2ccc(N)c(N)c2)cc1
#37 Cc1ccc2c(c1)Sc1c(ccc3ccccc13)N2
#38 CC12CCC(=O)N1C(C(=O)Nc1ccccc1N1CCCCC1)CS2 (centres undefined)
#39 O=C(N/N=C/c1c(O)n(Cc2ccc(F)cc2)c(=O)[nH]c1=O)c1ccccc1
#40 Cn1ccc(C(=O)Nc2sc3c(c2C(N)=O)CCCCC3)n1
assay / compound	33	34	35	36	37	38	39	40
PrP UTR inh	7	12	-1	-4	-115	-16	-18	-63
Bead autofluor	?	4757	3382	3534	4394	6626	3798	10960
Sa RN4220 lethal	1.0	8.1	7.9	0.7	-14	11	5.5	.
BJeLR lethal	.	10	-11	2	-1	.	-1	9
ugtP null kill	5	6	4	0	8	12	6	.
Mtb hypoxia rep	2	14	0	4	.	11	2	.
Mtb hypoxia rep growth	4	1	-3	-2	.	-2	14	.

#41 CCN1CCN(Cc2ccc(NC(=O)c3cc(NC(=O)c4ccno4)cc(OC)c3)cc2C(F)(F)F)CC1
#42 COc1cc(C(=O)Nc2ccc(C(=O)NCC3CCCO3)cc2)cc(OC)c1OC (centres undefined)
#43 CCc1cc(C(=O)N=Nc2c(O)[nH]c3c(Br)cc(Br)cc23)c2ccccc2n1
#44 CCC1CCCCN1CCCNC(=O)c1ccc(CS(=O)(=O)c2ccc(Br)cc2)o1 (centres undefined)
#45 Cc1c(NC(=S)Nc2ccccc2)c(=O)n(-c2ccccc2)n1C
#46 CC(C)C(=O)N1c2ccccc2NC2=C(C(=O)CCC2)C1c1ccc(N(C)C)cc1 (centres undefined)
#47 CC(Oc1ccccc1Cl)C(=O)N1CCOCC1 (centres undefined)
#48 O=[N+]([O-])c1ccc2ncnc(Nc3ccc4c(c3)OCCO4)c2c1
assay / compound	41	42	43	44	45	46	47	48
PrP UTR inh	-3	1	-14	-14	-15	-44	-8	1
Bead autofluor	4014&3932	3560	2021	6030	2253	3590	2422	4102
Sa RN4220 lethal	.	5.2	7.3	3.9	2.7	8.7	6.2	2.4
BJeLR lethal	20	23	-4	-10	-13	4	0	8
ugtP null kill	.	8	-21	-2	3	-7	3	1
Mtb hypoxia rep	.	5	-3	-4	-1	7	10	11
Mtb hypoxia rep growth	.	13	10	7	-1	7	5	7

#49 CCN1CCN(C(c2ccc(F)cc2)c2nnnn2Cc2ccc3c(c2)OCO3)CC1 (centres undefined)
#50 Cc1ccc(C(NC(=O)N2CCN(C)CC2)C(Cl)Cl)cc1F (centres undefined)
#51 COc1ccc(NC(=O)CN(C)C(=O)Cc2ccc(-c3ccccc3)cc2)cc1
#52 O=C(N/N=C/c1ccc(Br)s1)c1cccc([N+](=O)[O-])c1
#53 CCN(CC)Cc1c(C(=O)NN=Cc2cccc3ccccc23)nnn1-c1nonc1N
#54 Cc1nn(C)c(C)c1CNC(=O)Nc1cccc(Cl)c1
#55 Fc1ccc(NC(=S)Nc2cccc3cnccc23)cc1
#56 CC(=O)NCCCc1nc2ccccc2n1Cc1cc(C)ccc1C
assay / compound	49	50	51	52	53	54	55	56
PrP UTR inh	-32	-33	-15	9	.	-39	-25	-5
Bead autofluor	3194	2230	6654	2020	.	3376	4218	2421
Sa RN4220 lethal	3.2	3.4	10	.	2.9	4.2	6.7	3.3
BJeLR lethal	0	1	.	10	.	15	-5	-2
ugtP null kill	2	1	2	.	-1	1	3	2
Mtb hypoxia rep	4	10	4	.	5	12	0	5
Mtb hypoxia rep growth	4	5	4	.	-4	2	-7	-4

#57 COc1ccccc1CNC(=O)CN1CCC(n2cnc3cc(F)ccc32)CC1
#58 Cc1ccsc1CN(C)CC(=O)Nc1ccccc1C(=O)NC1CC1
#59 O=C(CN1CCSC1=NCc1ccccc1)c1ccc(Cl)cc1
#60 COc1cccc(-c2nnc(-c3ccccc3[N+](=O)[O-])o2)c1
#61 O=C(Nc1ccccc1C(=O)OCC(=O)N1CCc2ccccc2C1)c1ccco1
#62 CC1CCN(C(=O)CSc2nnc(N)s2)CC1
#63 O=C(Cn1cnc([N+](=O)[O-])n1)N/N=C/c1cccc(Cl)c1
#64 COc1ccc(OCCC(=O)Nc2ccccc2)cc1
assay / compound	57	58	59	60	61	62	63	64
PrP UTR inh	-10	-13	-15	-104	-30	-13	-4	-31
Bead autofluor	2918	3815	1989	5711	2990	?	1961	3267
Sa RN4220 lethal	-0.4	3.1	5.4	3.9	8.2	1.0	.	2.8
BJeLR lethal	5	.	6	-3	2	1	1	6
ugtP null kill	-1	5	23	-4	3	4	.	4
Mtb hypoxia rep	5	18	-2	-4	.	1	.	0
Mtb hypoxia rep growth	-3	7	3	5	.	10	.	2

#65 C=CCc1cccc(/C=N/NC(=O)CCC(=O)Nc2ccc(C)cc2)c1O
#66 O=C(Cc1ccccc1)c1ccc(O)cc1
#67 CC(=O)N1CCN(c2nc3ccc(Br)cc3s2)CC1
#68 CCOC(=O)C1CCN(c2cc3c(cc2NC(=O)c2cc(OC)ccc2Br)n(C)c(=O)n3C)CC1
#69 CCC(=O)N1CCc2cc(Br)cc(S(=O)(=O)CCC(=O)NCCc3ccccc3)c21
#70 Cc1nc2c(-c3ccccc3)c(C)nn2c(C)c1CCC(=O)NC(C)CCc1ccco1 (centres undefined)
#71 O=S(=O)(Nc1cccc(-c2ccc3nncn3n2)c1)c1cc(F)ccc1F
#72 NC(=O)c1cc(-c2csc(NCCc3ccccc3)n2)ccc1O
assay / compound	65	66	67	68	69	70	71	72
PrP UTR inh	-2	-48	-58	-5	-39	-3	-15	-20
Bead autofluor	2071	4054	4066	5572	8739	4378	?	5201
Sa RN4220 lethal	.	-3.0	5.9	0.5	3.5	6.3	4.6	-2.1
BJeLR lethal	1	.	13	0	2	-1	-5	-5
ugtP null kill	.	29	16	-4	-7	-1	3	-1
Mtb hypoxia rep	.	.	15	-6	3	-3	9	0
Mtb hypoxia rep growth	.	.	3	12	12	-7	-3	0

#73 COc1ccc(NC(=O)CC(C)=NNC(=O)c2ccco2)c([N+](=O)[O-])c1
#74 O=C(Nc1ccc(N2CCCC2)cc1)c1ccc(Br)cc1
#75 CN(C)c1ccc(C(=S)NC2CCCCC2)cc1
#76 COc1ccccc1NC(=O)Cn1nc(C)n2cccc2c1=O
#77 O=c1nc(SCc2cccc(C(F)(F)F)c2)nc2ccccn12
assay / compound	73	74	75	76	77
PrP UTR inh	.	-24	-60	-3	-1
Bead autofluor	.	3295	3408	5453	4393
Sa RN4220 lethal	5.9	8.6	7.3	-0.9	.
BJeLR lethal	.	-9	-8	3	4
ugtP null kill	-4	-3	19	-3	.
Mtb hypoxia rep	9	5	1	0	.
Mtb hypoxia rep growth	3	8	5	-7	.
